D2 ag: Beta-Arrestin HTS for Positive Allosteric Modulators of the Human D2 Dopamine Receptor: Agonists. 360,000 tested, 0.084% active. DiscoveRx PathHunter D2 beta-arrestin, luminescence, 90 min; 100% = 57 uM dopamine signal. activation, % (concentration not given with the values); in the data active = activation above about 40%; inconclusive = about 15% to 40%; inactive = below about 15%; also: compound concentration not given in the record; the text of the record calls up to 30% inactive
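DiscoveRx PathHunter D2 beta-arrestin cells (2,100/well) attached overnight, then compound-stimulated 90 min at 37 C in HBSS/10 mM HEPES/0.1% Tween-20 buffer; beta-galactosidase complementation read by luminescence after 1 h at ambient temperature. Dopamine 57 uM final (EC100) as control.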
gsp antag: qHTS for Antagonists of gsp, the Etiologic Mutation Responsible for Fibrous Dysplasia/McCune-Albright Syndrome: qHTS. Potency, µM (series often up to 76.9 µM), for inactives: at the top dose activity change, negative = inhibition, hits mostly inhibitors. gsp-mutant cells, cAMP HTRF, 30 min; control for the full effect not named in the record. 340,000 tested, 0.4% active; active = falling curve of any shape with a large fitted effect; inconclusive = falling curve, mostly with a smaller effect; inactive = flat or rising curve; cell line not stated here;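 also: intracellular cAMP measured with PDE inhibitor Ro 20-1724 present during compound exposure; potency is read from the fitted curve at half-maximal effect; % is scaled to controls: 0 for no effect and ±100 for the full control effect; nearly all actives have a fitted effect of over 65% in size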
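Cells in G418 medium, seeded 16-24 h, 37C; buffer exchange to DPBS + 1 mM CaCl2, 0.5 mM MgCl2, 0.05% BSA; cpds in DMSO + […] (300 uM stock), 30 min 37C; HTRF cAMP detection.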
CtBP-E1A blk: qHTS Assay for Inhibitors of the CtBP/E1A Interaction. CtBP / adenovirus E1A interaction (AlphaScreen). activity change, % (concentration not given with the values). 340,000 tested, 0.49% active. AlphaScreen GST-E1A/His-CtBP binding, 1536-well; stronger effect = lower value; control for the full effect not named in the record; in the data active means activity change below about -65%; inconclusive means about -30% to -65%; inactive means above about -30%; also: % is scaled to controls: 0 for no effect and ±100 for the full control effect
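In 5 uL wells, 23 nL compound meets equimolar GST-E1A and His-CtBP (5X stock 125 nM each) for 2 h, 37 °C. Beads (5X, 50 ug/mL) then 1 h, 37 °C, dark.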
gsp ag: qHTS for Agonist of gsp, the Etiologic Mutation Responsible for Fibrous Dysplasia/McCune-Albright Syndrome: qHTS. gsp mutant cells, cAMP HTRF, 30 min; control for the full effect not named in the record. Potency, µM (titrated, usually from 76.9 µM), for inactives: at the top dose activation (cAMP increase), actives largely listed as activators. 340,000 tested, 0.13% active. AID 624287, 2012; active = well fitted activation curve with a large enough effect; inconclusive = small, poorly fitted or top-dose-only effect, or another doubt; inactive = no such curve, though single readings can be large or run the other way; cell line not stated here;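 also: phosphodiesterase inhibitor Ro 20-1724 added with compounds to block cAMP breakdown; potency is read from the fitted curve at half-maximal effect; nearly all actives have a fitted effect of over 60% in size; about a fifth of the inactives were tested at one dose only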
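Cells in DMEM/10% FBS with G418 were pretreated with compounds in DMSO plus […] (300 uM stock) for 30 min at 37C. cAMP was measured by HTRF (cAMP-d2 plus anti-cAMP antibody-K) after 30 min at room temperature.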
Six1-Eya2 blk: qHTS Assay for Inhibitors of the Six1/Eya2 Interaction. AID 651725, 2012. AlphaScreen GST-Six1/His-Eya2 binding, biochemical; stronger effect = lower value; control for the full effect not named in the record. 360,000 tested, 0.56% active. activity change, % (no concentration beside the values); in the data active = activity change below about -65%; inconclusive = about -30% to -65%; inactive = above about -30%; also: % is scaled to controls: 0 for no effect and ±100 for the full control effect; compound concentration not given in the record
Target sequence (O00167 whole entry, looked up): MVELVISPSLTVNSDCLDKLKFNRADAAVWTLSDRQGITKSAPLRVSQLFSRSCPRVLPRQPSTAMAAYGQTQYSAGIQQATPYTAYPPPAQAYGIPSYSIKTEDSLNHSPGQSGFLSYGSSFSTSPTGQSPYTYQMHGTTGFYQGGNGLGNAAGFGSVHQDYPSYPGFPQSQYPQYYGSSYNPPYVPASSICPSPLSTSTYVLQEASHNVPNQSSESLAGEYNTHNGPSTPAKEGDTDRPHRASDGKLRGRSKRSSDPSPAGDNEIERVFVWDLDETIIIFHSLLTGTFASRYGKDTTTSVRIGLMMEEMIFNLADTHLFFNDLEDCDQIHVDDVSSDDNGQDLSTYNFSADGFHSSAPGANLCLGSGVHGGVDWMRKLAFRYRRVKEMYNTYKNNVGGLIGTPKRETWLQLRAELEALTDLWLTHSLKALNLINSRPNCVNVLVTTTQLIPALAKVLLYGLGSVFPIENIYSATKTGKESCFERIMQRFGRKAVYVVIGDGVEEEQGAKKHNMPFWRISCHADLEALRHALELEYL
Target sequence (Q15475 whole entry, looked up): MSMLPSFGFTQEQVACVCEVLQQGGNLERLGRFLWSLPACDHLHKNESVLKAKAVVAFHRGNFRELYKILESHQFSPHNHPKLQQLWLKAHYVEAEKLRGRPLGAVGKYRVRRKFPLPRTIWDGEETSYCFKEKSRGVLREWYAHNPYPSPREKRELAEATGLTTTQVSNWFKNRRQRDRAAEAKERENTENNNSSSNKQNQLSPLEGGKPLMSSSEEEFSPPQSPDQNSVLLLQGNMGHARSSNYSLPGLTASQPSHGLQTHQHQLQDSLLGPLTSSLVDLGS
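Compounds are tested against tagged Six1 and Eya2 proteins bridged by glutathione donor and nickel acceptor beads; after a one-hour incubation at 37 °C without light, AlphaScreen emission is recorded.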
D2 PAM: Beta-Arrestin HTS for Positive Allosteric Modulators of the Human D2 Dopamine Receptor: Potentiators. 360,000 tested, 0.23% active. AID 624464, 2012. potentiation, % (concentration not given with the values). DiscoveRx D2 beta-arrestin cells, luminescence, 90 min; 100% = 57 uM dopamine signal; active = potentiation of 50% or more; inconclusive = 30% to 50%; inactive = 30% or less;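 also: compound concentration not given in the record; tested on top of an EC20 dose of dopamine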
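D2 cells co-treated with compound plus 50 nM dopamine (EC20) for 90 min at 37 deg C to detect potentiation. Beta-arrestin recruitment was read as enzyme-fragment luminescence after 1 h at ambient temperature. Full response was set by 57 uM dopamine.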
The depositor's hits bear a star; ? = inconclusive; . = no result given; [ ] = remark or other dose. Outcome played no part in choosing rows; 1.4% or so of the library scored in one or more.

item | molecule | gsp antag | CtBP-E1A blk | D2 ag | D2 PAM | Six1-Eya2 blk | gsp ag
1 | CCN(CC(=O)Nc1ccccc1C(F)(F)F)C(=O)CCc1ccccc1 | -4% | 7 | -6.1 | -21 | 10 | 2%[15.4 µM]
2 | CC(C)(C)n1ncc2c(=O)n(Cc3ccc(Cl)cc3)cnc21 | 19% | 1 | 7.3 | -4 | 8 | 1%
3 | Cc1ccc(NC(=O)C2COc3ccccc3O2)cc1S(=O)(=O)N1CCOCC1 (stereo not drawn) | -15% | . | -1.9 | 4 | -14 | 20%
4 | COC(=O)c1cc(NC(=O)c2ccco2)ccc1N1CCOCC1 | 3% | 5 | 0.3 | 1 | 2 | -1%[15.4 µM]
5 | Cc1c(N)cccc1-n1cnnn1 | 7% | -1 | -1.5 | -17 | 0 | -13%[15.4 µM]
6 | O=C(CN(C(=O)c1csnn1)c1ccc(F)cc1)NCc1ccc(F)cc1 | 3% | 0 | -0.3 | -2 | 6 | 4%
7 | COc1ccc(C2=NNC(c3cccnc3)=Nc3ccccc32)cc1 | 0% | 4 | 2.0 | 2 | 16 | -12%[15.4 µM]
8 | COc1ccc(NC(=O)c2cc(-c3ccc(F)cc3C)n[nH]2)cc1OC | . | -3 | -1.7 | -8 | -3 | .
9 | Cn1c(=O)oc2cc(S(=O)(=O)N3CCN(c4ccc(F)cc4)CC3)ccc21 | 6% | 8 | -1.1 | -5 | 2 | -60%[inhibitor]
10 | CCOC(=O)CN1NC2(CCC(C(C)(C)C)CC2)NC1=S (stereo not drawn) | 4% | -3 | -0.7 | -3 | 5 | 11%
11 | CCOC(=O)c1sc(NC(=O)CSc2ncn(-c3ccccc3)n2)nc1C | -16% | 0 | -2.5 | -7 | -2 | -16%
12 | CCCCOc1cccc(C(=O)Nc2ccc(N3CCN(CC)CC3)cc2)c1 | -4% | -4 | -2.6 | -6 | -9 | 0%
13 | O=C(CCCC(=O)N(CC(=O)NC1CCCC1)Cc1ccc(F)cc1)Nc1ccccn1 | 1% | -2 | -0.6 | -22 | -1 | -9%
14 | COc1ccc2c(c1)c(C(O)CN1CCC(Cc3ccccc3)CC1)c(C)n2C (stereo not drawn) | -2% | -3 | -2.5 | -19 | ? | 23%[15.4 µM]
15 | N#Cc1ccc(S(=O)(=O)NC2CCCCNC2=O)cc1 (stereo not drawn) | -13% | 3 | -2.1 | -6 | 13 | 21%[15.4 µM]
16 | COc1ccc(CCNC(=O)CC2SC(=NCCC(C)C)NC2=O)cc1OC (stereo not drawn) | 3% | 25 | -3.6 | -12 | 10 | -12%
17 | CC(=O)c1cccc(NC(=O)C(C)Sc2nnc3ccccn23)c1 (stereo not drawn) | . | -5 | -2.1 | -10 | -3 | ?
18 | O=C(NC(=S)NCCN1CCOCC1)c1ccc(F)cc1 | 4% | 23 | -1.4 | 11 | 0 | ?
19 | CCNC(=O)C1(C)CCN(C(=O)c2cc(F)ccc2C)C1 (stereo not drawn) | . | 8 | -2.8 | -14 | 0 | .
20 | COc1cccc(N2CC(C(=O)Oc3ccc4ccccc4c3)CC2=O)c1 (stereo not drawn) | ? | -1 | -2.6 | -6 | 0 | -47%[inhibitor]
21 | COc1ccccc1C(=O)Nc1ccnn1C1CCN(C(=O)c2ccoc2C)CC1 | -1% | -24 | -0.8 | -12 | -6 | ?
22 | C/C=C(/C)C(=O)O[C@@H]1c2cc3c(c(OC)c2-c2c(cc(OC)c(OC)c2OC)[C@@H](OC(C)=O)[C@@H](C)[C@H]1C)OCO3 | -5% | 0 | -3.3 | -6 | -2 | .
23 | CN(C(=O)c1cccc(NC(=O)Cc2ccc(NC(=O)C3CCN(S(=O)(=O)c4cccc([N+](=O)[O-])c4)CC3)cc2)c1)C1CC1 | 3% | -2 | 4.8 | 6 | -1 | .
24 | Cc1ccc(-c2c[n+](=O)c3c(n2[O-])CCC3)cc1 | -2% | 2 | 9.5 | 9 | 1 | -1%[15.4 µM]
25 | COc1ccc([C@@H]2[C@@H]3C(=O)N(C(C)(C)C)C(=O)[C@@H]3[C@]3(Cc4ccccc4)C(=O)N(c4ccc(Br)cc4)C(=O)N23)cc1 | -8% | -7 | -2.1 | -6 | -18 | .
26 | Cc1cc(C)n(-c2c(F)c(F)c(COC(=O)c3ccccc3)c(F)c2F)n1 | -17% | 19 | -2.7 | -9 | 15 | 1%
27 | O=C(Cn1c(=O)n(Cc2ccco2)c(=O)c2cc(Cl)ccc21)NCC1CCCO1 (stereo not drawn) | 6% | 4 | 0.2 | -4 | 1 | 20%
28 | CCCn1c(N)c(N(CCOC)C(=O)c2cccc(S(=O)(=O)N3CCCc4ccccc43)c2)c(=O)[nH]c1=O | 7% | -2 | -2.1 | 0 | -2 | -31%[inhibitor]
29 | C[C@H]1CN=C(N(C)C)N1CCC1CCCCC1 | 10% | 4 | -1.5 | -7 | 4 | .
30 | Cc1ccc(C(=O)CCC(=O)OCC(=O)N2CCN(S(=O)(=O)c3ccc(C)cc3C)CC2)cc1 | -12% | -1 | 0.5 | -2 | -3 | -3%
31 | CC1CCN(C(=S)SCc2nc(N)nc(Nc3ccccc3)n2)CC1 | -13% | . | -2.6 | -16 | -2 | -17%
32 | CCN(CC)C(=O)CNC(=O)Cc1ccc(Cl)cc1 | 10% | -4 | -1.7 | -2 | 1 | -6%
33 | COCCCNC(=O)CCn1c(=O)c2ccccc2n(CC(=O)Nc2c(C)cccc2C)c1=O | -7% | 14 | -3.7 | 9 | 0 | 6%
34 | CCCc1nc2ccc(NC(C)=O)cc2c(=O)n1Cc1ccccc1Cl | -6% | 0 | -2.3 | -2 | 1 | -3%
35 | COC(=O)c1c(-c2ccccc2)nn(-c2ccccc2)c1C(=O)OC | -7% | . | 4.0 | -8 | 3 | -1%
36 | CC(C)Cc1cc(CN2CCC(CO)(Cc3ccccc3)CC2)[nH]n1 | 9% | 7 | -0.4 | -18 | 5 | ?
37 | CCCC(=O)NC(NC(=S)Nc1ccc(S(N)(=O)=O)cc1)C(Cl)(Cl)Cl (stereo not drawn) | -1% | -17 | 0.7 | -3 | 4 | -44%
38 | Cc1cc(C)cc(Oc2ccccc2/C=C\C(=O)O)c1 | -11% | 2 | -1.2 | 9 | -2 | 14%
39 | Cc1sc2ncnc(NS(=O)(=O)c3ccc(Cl)cc3)c2c1C | -23% | -1 | -1.8 | 0 | 0 | 11%
40 | COc1ccc(C(C)C)cc1S(=O)(=O)N1CCC(C(=O)N2CCN(C)CC2)CC1 | 12% | 5 | -3.3 | -10 | 1 | -14%[15.4 µM]
41 | CC1CC(C)CN(S(=O)(=O)c2ccc(C(=O)N3CCN(c4ccccc4)CC3)cc2)C1 (stereo not drawn) | 2% | -3 | -2.0 | -13 | -25 | -23%
42 | Cc1cccc(OCCSCc2nc3ccccc3[nH]2)c1 | ? | 2 | -0.7 | -25 | 5 | -51%[inhibitor]
43 | CC(C)(C)C(=O)NC(=S)NCCc1ccccc1 | -8% | 2 | -2.2 | 15 | -7 | 1%
44 | CCCn1c(C)cc(C(=O)CN2C(=O)c3ccccc3S2(=O)=O)c1C | . | -1 | -4.2 | -2 | -17 | 4%
45 | O=C(NCC1CCCO1)C1CC(=O)N(c2ccc(F)c(Cl)c2)C1 (stereo not drawn) | 2% | 4 | -4.7 | -3 | 1 | -19%
46 | CSCCC(NC(=O)c1ccccc1)C(=O)N(C)CC(=O)Nc1ccc(N2CCOCC2)cc1 (stereo not drawn) | 2% | 3 | 2.1 | 13 | 2 | 9%
47 | Cc1csc(SCC(=O)Nc2ncc(Cl)c(C)c2Cl)n1 | 3% | -2 | -2.6 | -29 | 0 | 15%
48 | O=S(=O)(NCCc1cn2ccccc2n1)c1ccc(F)c(C(F)(F)F)c1 | 5% | 1 | -3.3 | -8 | 0 | -75%
49 | O=C(c1cccnc1)N1CCN(c2ccc3ccccc3n2)CC1 | -5% | . | -5.6 | -6 | 2 | ?
50 | COc1ccc(CNCC(O)COc2ccc(C(C)(C)c3ccccc3)cc2)cc1 (stereo not drawn) | 5% | -1 | -1.7 | -14 | 6 | 8%[15.4 µM]

(continued)
item | molecule | gsp antag | CtBP-E1A blk | D2 ag | D2 PAM | Six1-Eya2 blk | gsp ag
51 | O=C(CO/N=C/c1cccc([N+](=O)[O-])c1)Nc1ccc2ccccc2c1 | ? | -2 | -3.9 | 0 | -10 | 1%
52 | CCOC(=O)C1(C)CCCN(C(=O)c2cc(C)on2)C1 (stereo not drawn) | . | 0 | -5.4 | -4 | 10 | .
53 | CCOc1ccccc1C(=O)Nc1ccc(S(=O)(=O)N2CCOCC2)cc1 | -5% | 2 | 1.1 | -2 | -10 | -16%
54 | CCC1Nc2ncnc(N3CCOCC3)c2N(Cc2ccccc2)C1=O (stereo not drawn) | -8% | 9 | -3.5 | -13 | 5 | -1%
55 | Cc1cc(Cl)c2oc(C(=O)N3CCCCC3CCN3CCCC3=O)c(C)c2c1 (stereo not drawn) | -5% | -29 | 0.2 | -8 | -12 | ?
56 | Cc1ccc(NC(=O)C2CCN(S(=O)(=O)c3ccc4c(c3)CCCC(=O)N4)CC2)cc1N(C)C | -5% | 0 | 0.3 | -11 | -4 | -12%

Compounds 48 to 53, quoted:
item | molecule | gsp antag | CtBP-E1A blk | D2 ag | D2 PAM | Six1-Eya2 blk | gsp ag
48 | O=S(=O)(NCCc1cn2ccccc2n1)c1ccc(F)c(C(F)(F)F)c1 | 5% | 1 | -3.3 | -8 | 0 | -75%
49 | O=C(c1cccnc1)N1CCN(c2ccc3ccccc3n2)CC1 | -5% | . | -5.6 | -6 | 2 | ?
50 | COc1ccc(CNCC(O)COc2ccc(C(C)(C)c3ccccc3)cc2)cc1 (stereo not drawn) | 5% | -1 | -1.7 | -14 | 6 | 8%[15.4 µM]
51 | O=C(CO/N=C/c1cccc([N+](=O)[O-])c1)Nc1ccc2ccccc2c1 | ? | -2 | -3.9 | 0 | -10 | 1%
52 | CCOC(=O)C1(C)CCCN(C(=O)c2cc(C)on2)C1 (stereo not drawn) | . | 0 | -5.4 | -4 | 10 | .
53 | CCOc1ccccc1C(=O)Nc1ccc(S(=O)(=O)N2CCOCC2)cc1 | -5% | 2 | 1.1 | -2 | -10 | -16%
